VDR inh – inhibitors of human vitamin D receptor. AID 504847. Potency, µM, inactives show max response, negative = inhibition, hits mostly inhibitors. VDR-SRC2-3 peptide fluorescence polarization, 2 h. 400,000 tested, 0.93% active; active = well fitted inhibition curve with a large enough effect; inconclusive = small, poorly fitted or top-dose-only effect, or another doubt; inactive = no such curve, though single readings can be large or run the other way; also: series mostly up to about 120 µM
Target sequence (P11473 whole entry, looked up): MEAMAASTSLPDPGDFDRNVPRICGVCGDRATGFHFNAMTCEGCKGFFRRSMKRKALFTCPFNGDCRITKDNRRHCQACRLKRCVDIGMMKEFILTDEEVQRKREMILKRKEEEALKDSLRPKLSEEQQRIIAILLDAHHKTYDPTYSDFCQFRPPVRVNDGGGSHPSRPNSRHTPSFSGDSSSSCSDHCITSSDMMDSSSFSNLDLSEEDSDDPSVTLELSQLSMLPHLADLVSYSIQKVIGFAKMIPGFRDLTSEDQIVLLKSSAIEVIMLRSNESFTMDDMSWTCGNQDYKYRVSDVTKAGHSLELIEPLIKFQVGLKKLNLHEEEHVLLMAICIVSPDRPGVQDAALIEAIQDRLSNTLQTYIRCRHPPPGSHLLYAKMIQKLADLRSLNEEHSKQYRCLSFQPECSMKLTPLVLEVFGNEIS
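Reagent solutions, kept cold and dark, are dispensed first; compounds are then pinned in at 23 nl, plates briefly spun, and incubated 2 h at ambient temperature. Inhibition of VDR–SRC2-3 peptide binding is read by fluorescence polarization.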
* = called active by the depositor; ? = inconclusive; & = joins results of further samples. % is scaled to controls: 0 for no effect and ±100 for the full control effect; potency is read from the fitted curve at half-maximal effect.

SMILES | VDR inh
O=C(Cc1cccs1)Nc1nnc(SCC(=O)NC2CCCCC2)s1 | -12%
COc1ccc(C(=O)OCC(=O)Nc2ccccc2)cc1[N+](=O)[O-] | -19%
S=c1nc2[nH]c3ccccc3c2n[nH]1 | ?
CCCCCCn1c(SCC(=O)c2ccccc2)nc2c1c(=O)[nH]c(=O)n2C | -20%
Cc1cccc(OCc2nc(-c3ccccn3)n[nH]2)c1 | 3%
COc1ccc(S(=O)(=O)NCCCn2ccnc2)cc1C(C)(C)C | 13%
CCCn1c(C)cc(/C=C(\C#N)C(=O)OCC(=O)N(C)c2c(N)n(Cc3ccccc3)c(=O)[nH]c2=O)c1C | 3%
Cc1cc2ncc(C(=O)Nc3ccccc3)c(C)n2n1 | -6%
COc1ccc(S(=O)(=O)N2CCCN(CC(=O)Nc3ccccc3F)CC2)cc1 | -11%
CC1CCC(C(C)C)C(OC(=O)C2=C3c4ccccc4S(=O)(=O)N3CC2)C1 (stereo not drawn) | -9%
Cc1nc2ccccc2cc1C(=O)O | -2%
COCCn1c(Cc2ccccc2)nnc1SCC(=O)N(C)C | 11%
CCOC(=O)C(CCCOc1ccccc1C)C(=O)OCC | 3%
COc1ccc(OC)c(C2=Nn3c(nnc3-c3ccncc3)SC2)c1 | -6%
COc1ccccc1OCC(=O)Nc1ccc(S(=O)(=O)N2CCCC2)cc1 | 4%
O=C(Nc1nc(-c2ccc(Br)cc2)cs1)c1cccnc1 | 10%
O=c1[nH]c(CSc2ncn[nH]2)nc2ccccc12 | -14%
COc1ccc(C(=S)N2CCC(C(N)=O)CC2)cc1Br | -7%
O=C(CCn1cnc2ccccc2c1=O)Nc1ccc(S(=O)(=O)N2CCCCC2)cc1 | 4%
COc1ccccc1N1CCN(/N=C/c2c(C)nn(-c3ccccc3)c2C)CC1 | -9%
COc1cc2nc(SCC(=O)Nc3ccccc3C)n3nc(CCn4c(C)nc5ccccc54)nc3c2cc1OC | 4%
Cc1c(Br)c([N+](=O)[O-])nn1CC(=O)Nc1cccc2nonc12 | 6%
CCOC(=O)c1cnc2nc(C)nn2c1N | -5%
O=c1[nH]c(SCc2nc3ccccc3n2Cc2ccccc2)nc2ccccc12 | -6%
C=CCn1c(SC(C)C(=O)Nc2ccc(Cl)cn2)nnc1C1CC1 (stereo not drawn) | -6%
CN(CCC#N)C(=O)c1cc2c(s1)-c1ccccc1SC2 | -12%
Cc1c(Nc2cc(=O)oc3ccccc23)c(=O)n(-c2ccccc2)n1C | 1%
COc1ccccc1CNC(=O)CN1C(=O)COc2ccc(S(=O)(=O)Nc3ccccc3)cc21 | 17%
Cc1ccc(CN2COc3c(Cl)cc4c(-c5ccccc5)cc(=O)oc4c3C2)cc1 | 16%
CCn1c(CC(=O)Nc2ccc(C)cc2)nnc1SCC(=O)Nc1nc(C)cs1 | -26%
CCOC(=O)CN(c1ccccn1)S(=O)(=O)c1ccccc1 | 5%
CCn1cc(C(=O)NCCCN2CCCC(C)C2)c(=O)c2cc(S(=O)(=O)N3CCc4ccccc4C3)ccc21 (stereo not drawn) | -5%
CC(C)C(=O)N[C@@H]1c2ccccc2CC[C@H]1OCc1ccccc1 | 6%
COc1ccc2[nH]c(C(=O)N/N=C/c3ccccc3OC)cc2c1 | 2%
Cc1c(-c2ccc(Cl)cc2)[n+](=O)c2c(n1[O-])CCCC2 | 25%
CCCCn1c(N)c(N(CC)C(=O)CSCc2ccc(C)cc2)c(=O)[nH]c1=O | -24%
CSc1cccc(NC(=O)CC(c2ccc(F)cc2)N2Cc3ccccc3C2=O)c1 (stereo not drawn) | 11%
C=C1CCN(C(C(=O)OC)C(C)C)S(=O)(=O)c2ccc(F)cc21 (stereo not drawn) | -21%&-4%
COc1ccc(N2CCN(C(=O)CSc3nnc4c(C)cc5cc(C)ccc5n34)CC2)cc1 | 18%
COC(=O)c1ccc(NC(=O)c2ccccc2SC)cc1 | -4%
COc1ccccc1C(=O)NNC(=O)C(=O)Nc1ccc(C)cc1 | -9%
CCOc1ccc(N2C(=O)CC(N3CCN(C(=O)CN4CCCC4)CC3)C2=O)cc1 (stereo not drawn) | 8%
O=C(O)C1CCN(c2ncnc3ccc(-c4ccccc4C(F)(F)F)cc23)CC1 | 3%
CN(CCOc1ccc(Br)cc1)CC(=O)Nc1cccc(S(=O)(=O)NC2=NCCC2)c1 | -12%
CCOC(=O)C1(CC2CCCCO2)CCN(S(=O)(=O)c2ccc(C)s2)CC1 (stereo not drawn) | 2%
CCCC(=O)N1CCCC(c2nc(-c3cccs3)no2)C1 (stereo not drawn) | -2%
CN1C(c2ccc(F)cc2)=CS/C1=C(\C#N)c1nnc2n1-c1ccccc1SC2 | -11%
COc1ccc(S(=O)(=O)Nc2ccc(Cc3ccncc3)cc2)cc1OC | 7%
CCOc1ccc(N=Cc2c(O)n(-c3cccc(C)n3)c(=O)c3ccccc23)cc1 | 17%
O=C(CN1C(=O)CCOc2ccccc21)Nc1cccc(S(=O)(=O)N2CCOCC2)c1 | -20%
Cc1ccc(CNC(=O)c2cc(Cl)cc(Cl)c2)n1C | -10%
Cc1c(NC(=O)c2nn3c(c2Br)NC(c2ccccc2)CC3C(F)(F)F)c(=O)n(-c2ccccc2)n1C (stereo not drawn) | -9%
O=C(c1ccccc1)N1N=C(c2ccco2)CC1c1cccs1 (stereo not drawn) | 9%
COc1ccc(NC(=O)c2c(C(=O)Nc3ccccc3)sc3nc(C)cc(=O)n23)cc1 | 18%
COc1ccc(-c2csc(N(CCCN(C)C)C(=O)c3ccccc3F)n2)cc1 | -8%
CC(=O)c1cccc(CN2CCC(C(=O)Nc3ccc(Oc4cccnc4)cc3)CC2)c1 | -7%
COc1ccc(OCc2nc(-c3ccc(F)c(F)c3)cs2)cc1 | -12%
COc1ccc(C(=O)/C=C/c2ccc3c(c2)OCCO3)cc1 | -27%
O=C(COC(=O)c1cc[n+]([O-])cc1)Nc1ccc2c(c1)OCCO2 | 16%
O=C(O)CCn1c(=O)[nH]c(=O)n(CCC(=O)O)c1=O | -17%
More structures
SMILES | VDR inh
O=C(Nc1nc(-c2ccncc2)cs1)C1COc2ccccc2O1 (stereo not drawn) | ?
CC1CCN(CCCNC(=O)c2coc3nc4ccccc4nc23)CC1 | 9%
COC(=O)c1cn(NC(=O)C2CCCCC2)c(=O)c2ccccc12 | -16%
O=C(CN1CCN(Cc2ccccc2)CC1)N/N=C/c1ccc(Br)s1 | 0%
O=C(Nc1ccccc1N1CCN(c2ccc(F)cc2)CC1)C1CCCCC1 | -5%
c1ccc(CSc2nnc(-c3cccs3)o2)cc1 | -2%
CCOC(=O)CCP(=O)(O)C(O)(c1ccccc1)c1ccccc1 | 3%
CC(=O)N(CN1C(=O)C2CC=CCC2C1=O)c1cccc(Cl)c1 (stereo not drawn) | 10%
CCC(C)(C)NC(=O)C(c1cccn1C)N(C(=O)Cn1nnc2ccccc21)c1ccc(NC(C)=O)cc1 (stereo not drawn) | -10%
COC(=O)CNC(=O)COC(=O)c1ccc(Cl)nc1 | -24%
N#Cc1nc(COc2ccccc2Cl)oc1N1CCCCCC1 | -15%
CC1NC(=O)NC1CCCCCC(=O)NCCc1ccccc1 (stereo not drawn) | -9%
CCCOc1ccc(N2C(=O)C/C(=C\c3ccccc3)C2=O)cc1 | -13%
CCN(CC)C(=O)c1ccc(NS(=O)(=O)c2ccc3[nH]c(=O)[nH]c3c2)cc1 | -6%
COCCCNC(=O)c1c(F)c(F)c(F)c(F)c1F | -7%

Gathered by group: the entries above containing a COOH group
SMILES | VDR inh
Cc1nc2ccccc2cc1C(=O)O | -2%
O=C(O)C1CCN(c2ncnc3ccc(-c4ccccc4C(F)(F)F)cc23)CC1 | 3%
O=C(O)CCn1c(=O)[nH]c(=O)n(CCC(=O)O)c1=O | -17%

Other records follow.
SMILES | VDR inh
CCOC(=O)c1nn(-c2ccccc2C)c(=O)c2c(N)scc12 | 35µM*
CC1CC(=Cc2ccc([N+](=O)[O-])cc2)C(=O)O1 (stereo not drawn) | -1%
COc1ccc(CC(=O)Nc2ccc(OC)c(NC(=O)c3ccco3)c2)cc1 | 4%
CCN(CC)c1ccc(C(=O)OCC(=O)Nc2cccc(S(=O)(=O)NC3=NCCCCC3)c2)cc1 | 4%
CCN(CC)CCOC(=O)C1c2ccccc2Oc2ccccc21 | 5%
Cc1nn(C)cc1/C=N\NC(=O)c1csc2c1CCCC2 | 7%
CCOC(=O)Cc1ccc(NC(=O)n2ncc3cc(Cl)ccc32)cc1 | -5%
Cc1ccccc1Nc1c(-c2c[nH]c3ccccc23)nc2ccc(Cl)cn12 | -20%
Cc1ccc(OCC(=O)NCCS(=O)(=O)N2CCN(c3ccccc3)CC2)cc1 | -7%
COc1ccccc1-n1nnnc1SC(C)C(=O)NC1CCCC1 (stereo not drawn) | -16%
CCCC(=O)NC(NC(=S)Nc1ccc(S(N)(=O)=O)cc1)C(Cl)(Cl)Cl (stereo not drawn) | -15%
CCOC(=O)N1CCN(C(=O)c2ccc(OC)c(S(=O)(=O)N3CCOCC3)c2)CC1 | 4%
C#CCOCCOCCOCCNc1nc(N2CCN(C(=O)CCCCCCCCCCNC(=O)[C@@H]([C@H](C)O)n3cc(C)nn3)CC2)nc(N2CCN(C(=O)CCCCCCCCCCNC(=O)[C@@H]([C@H](C)O)n3cc(C)nn3)CC2)n1 | 0%
O=C(CN1CCN(CC(=O)Nc2ccc(F)cc2)CC1)NCC1(N2CCOCC2)CCCCC1 | -1%
CCc1nnc(NC(=O)c2cc(S(=O)(=O)N3CCCCC3)ccc2N2CCOCC2)s1 | 5%
COc1ccc(CN2CCN(CC(=O)Nc3ccccc3C(=O)NC3CC3)CC2)cc1F | -11%
Cc1ccc(C(=O)N/C(=C/c2ccccc2F)C(=O)NCCCn2ccnc2)cc1 | -9%
Cc1cccc(N(CC(=O)NC2CCCC2)C(=O)c2nsc(Cl)c2Cl)c1C | 15%
CCOc1ccc(NC(=O)CC2SC(=O)N(c3ccccc3)C2=O)cc1 (stereo not drawn) | 28µM*
Cn1c(-c2ccc(Cl)nc2)nc2cc(Cl)ccc21 | -7%
CC(=C/c1ccccc1)/C=N/NC(=O)c1cc(C)oc1C | -1%
O=C(c1ccc2ccccc2c1)N1CCN(c2ccccn2)CC1 | -14%
COc1ccc(-n2ccn(CC(=O)NCc3ccc(C)cc3)c(=O)c2=O)cc1OC | 15%
S=c1[nH]c2cc(Cl)ccc2s1 | -4%
COC(=O)C1Cc2ccccc2CN1S(=O)(=O)c1ccc(C)cc1 (stereo not drawn) | -8%
CCOC(=O)c1c(C)c(C(=O)NC2CCCCCC2)c(C)n1C | 7%
Cc1c(NC(=O)CC(C)C)cccc1-c1nc2cccnc2s1 | 13%
COc1ccc(NC(=O)C2CC2)cc1S(=O)(=O)N1CCOCC1 | ?
CCCOc1ccc(N2C(=O)CC(N3CCN(c4ccc([N+](=O)[O-])cc4)CC3)C2=O)cc1 (stereo not drawn) | 14%
COc1cc(/C=N/NC2=NS(=O)(=O)c3ccccc32)cc(OC)c1OC | 8%
CC(C)(NO)/C(=N/O)c1cccs1 | -13%
CCC1(c2ccccc2)NC(=O)N(CC(=O)Nc2nnc(C3CC3)s2)C1=O (stereo not drawn) | 5%
COc1cccc(NC(=O)CSC2=Nc3ccccc3C3=NC(CCC(=O)NCc4ccco4)C(=O)N23)c1 (stereo not drawn) | -1%
O=C(COC(=O)c1ccc(O)cc1)Nc1cc(S(=O)(=O)N2CCOCC2)ccc1Cl | 4%
Cc1ccc2c(c1)cc(CN(Cc1ccco1)S(=O)(=O)c1ccccc1)c1nnnn12 | -5%
O=C(NCc1ccccc1)C(c1cccs1)N(C(=O)c1csnn1)C1CC1 (stereo not drawn) | -1%
O=C(COc1ccc2ccccc2c1)N1c2ccccc2Sc2ccccc21 | -9%
COC(=O)c1ccccc1NC(=O)CCn1c(=O)oc2ccccc21 | 5%
CCc1cccc(NC(=O)c2ccc(Cn3nc(C)cc3C)o2)c1 | 16%
Cc1nc(C)c(-c2csc(NCc3ccco3)n2)s1 | -5%
COc1ccc(C(=O)NC(=S)NNC(=O)c2ccc3ccccc3n2)cc1 | 7%
CCC(C)c1ccc(NC(=O)C2CCN(c3ccc(C(F)(F)F)cn3)CC2)cc1 (stereo not drawn) | 1%
CC(C)(C)OC(=O)C[C@@H]1C/C=C\C[C@H](CC(=O)N[C@H](CO)Cc2ccccc2)C(=O)N[C@H](Cc2ccccc2)COC1=O | 1%
CCc1ccc(/C([O-])=C(/C(=S)NCCN2CCOCC2)[n+]2ccccc2)cc1 | -16%
CCc1cccc(NC(=O)Cn2nc(-c3cc(C)ccc3C)ccc2=O)c1 | -10%

An excerpt of these results, with each value named:
CC(C)(NO)/C(=N/O)c1cccs1
  VDR inh: -13%

CCc1cccc(NC(=O)Cn2nc(-c3cc(C)ccc3C)ccc2=O)c1
  VDR inh: -10%

Next structures
SMILES | VDR inh
CCN(CC)C(=O)CSc1ncnc2c1cnn2Cc1ccccc1 | 7%
Cc1noc(C)c1CSCC(=O)N(C)CC(=O)Nc1ccc(Cl)c(Cl)c1 | -12%
Cc1cccc(CCNC(=O)c2ccc3c(c2)nc2n3CCOC2)c1 | -2%
COc1ccc(C(=O)NCCNC(=O)c2cnccn2)cc1OC | -4%
Cn1c(COc2ccc(F)cc2)nnc1SCC(=O)NC1CC1 | 0%

Molecules from the list above with bromine (6):
SMILES | VDR inh
O=C(Nc1nc(-c2ccc(Br)cc2)cs1)c1cccnc1 | 10%
COc1ccc(C(=S)N2CCC(C(N)=O)CC2)cc1Br | -7%
Cc1c(Br)c([N+](=O)[O-])nn1CC(=O)Nc1cccc2nonc12 | 6%
CN(CCOc1ccc(Br)cc1)CC(=O)Nc1cccc(S(=O)(=O)NC2=NCCC2)c1 | -12%
Cc1c(NC(=O)c2nn3c(c2Br)NC(c2ccccc2)CC3C(F)(F)F)c(=O)n(-c2ccccc2)n1C (stereo not drawn) | -9%
O=C(CN1CCN(Cc2ccccc2)CC1)N/N=C/c1ccc(Br)s1 | 0%

A portion of the library; count on the stated rates, not on these rows.
